Vaccinia mCherry – vaccinia inhibition (mCherry reporter); actives 0.63% (n = 310,000); AID 720579; Vaccinia virus mCherry reporter infection, fluorescence; about a quarter of the inactives have no number; Potency, µM (titrated, usually from 36.5 µM), for the others: top-dose activity change, negative = inhibition, hits mostly inhibitors; active = well fitted inhibition curve with a large enough effect; inconclusive = small, poorly fitted or top-dose-only effect; inactive = no such curve, though single readings can be large or run the other way; tested in A549 cells; also: nearly all actives have a fitted effect of over 35% in size; inactives centre near -10
Vaccinia Venus – inhibitors of vaccinia virus (Venus reporter); Vaccinia virus Venus reporter expression, fluorescence; actives 0.46% (n = 330,000); Potency, µM (highest dose often 36.5 µM), without a hit: at the highest dose activity change, negative = inhibition, hits mostly inhibitors; active means well fitted inhibition curve with a large enough effect; inconclusive means small, poorly fitted or top-dose-only effect; inactive means no such curve, though single readings can be large or run the other way; tested in A549 cells; also: nearly all actives have a fitted effect of over 30% in size; inactives centre near -10
Starred values were filed as active, the others as inactive; i = inactive; ? = inconclusive; . = no result given; & = joins results of further samples; [ ] = remark or other dose. % is scaled to controls: 0 for no effect and ±100 for the full control effect; potency is read from the fitted curve at half-maximal effect.

SMILES	Vaccinia mCherry	Vaccinia Venus
CCOC(=O)c1sc(=S)n(C)c1NC(=O)c1ccccc1C	-1.3%	-0.2%
COC(=O)c1cccc(Nc2c(-c3ccc(O)c(OC)c3)nc3nc[nH]n23)c1	-10.3%	-8.7%
Cc1ccc(CN2CCOCCS2(=O)=O)cc1	-32.0%	?
Cc1ccc(OCC(=O)N2CCN(C)CC2)c(Br)c1	-15.8%	-10.6%
O=C(O)C1CCN(C(=O)c2cc(F)cc3c2OCOC3)CC1	-12.4%	-2.2%
COc1ccc(OC)c(Cc2nnc(CCC(=O)N3CCC(N4CCCCC4)CC3)o2)c1	i	-8.2%
CCOc1cc(C(=O)N/N=C/C2CC=CCC2)cc(OCC)c1OCC (configuration not stated)	-21.5%	-22.2%
CCC(C)[C@H](NC(=O)Nc1ccccc1F)C(=O)OC (some centres not stated)	i	-6.6%
Cc1ccc(CN(C)C(=O)c2cccc(S(=O)(=O)N3CCN(Cc4ccccc4)CC3)c2)o1	i	-10.6%
CCC(C)NCCOCCOc1ccc(Br)cc1 (configuration not stated)	i	-5.5%
CCCc1c(C)nc(N2CCN(c3ccccc3OC)CC2)[nH]c1=O	-11.1%	-5.4%
COc1ccc(C=NNC(=S)NC23CC4CC(CC(C4)C2)C3)cc1OC	-8.9%	-22.1%
COc1cc(S(=O)(=O)N2CCN(c3ccccn3)CC2)ccc1Br	-13.0%	-19.8%
O=C(CN1C(=O)NC2(CCCC2)C1=O)N1CCN(S(=O)(=O)c2ccccc2)CC1	-22.0%	-19.6%
C[C@H](CO)N1C[C@H](C)[C@@H](CN(C)C(=O)Nc2ccc(C(F)(F)F)cc2)Oc2ccc(NS(=O)(=O)c3ccccc3)cc2C1=O	-4.8%	-10.1%
COCCN(C(=O)CNC(=O)c1ccco1)C(C(=O)NC1CCCC1)c1ccc(F)cc1 (configuration not stated)	-32.2%	-11.2%
Cc1cc(C)cc(N(CC(=O)N2CCOCC2)S(=O)(=O)c2ccccc2)c1	.	2.9%
Cc1cc(=O)n(CC(=O)Nc2ccc([N+](=O)[O-])cc2)c(-n2nc(C)cc2C)n1	-15.5%	-6.0%
CC1=N/C(=C/c2ccc([N+](=O)[O-])cc2)C(=O)N1c1ccc(Cl)cc1Cl	-8.0%	2.1%
CCOC(=O)C1CCN(C(=O)COc2ccc(Br)cc2Br)CC1	i	0.0%
COc1ccc(-c2cc(C(=O)NCc3cn(C)nc3C)c3ccccc3n2)cc1OC	-4.2%	-5.5%
Cc1ccc(C(=O)CSc2nc3cc(C(=O)NC4CCCC4)ccc3c(=O)n2CC2CCCO2)cc1 (configuration not stated)	7.5%	-4.0%
O=C(COc1ccc(Cl)cc1)N/N=C/c1cccc2cccnc12	?	-19.1%
CN(Cc1ccccc1)C(=O)c1ccc(NC(=O)Cc2cccc(NC(=O)C3CCN(C(=O)C4CCCCC4)CC3)c2)cc1	i	?
CCOC(=O)c1c(C)sc(-c2c(-c3cc(C)ccc3C)[nH]c3c2c(=O)[nH]c(=O)n3C)c1O	-4.6%	-1.5%
CCS(=O)(=O)N1CCCC(C(=O)NCCN(C)Cc2ccccc2)C1 (configuration not stated)	.	3.6%
COCCN(C(=O)COC(=O)CCOc1ccccc1C)c1c(N)n(Cc2ccccc2)c(=O)[nH]c1=O	-10.7%	-18.4%
CC1CCCN(C(=O)CNS(=O)(=O)c2cccs2)C1 (configuration not stated)	i	-4.7%
C/C(=N\NC(=O)c1csc(C)c1C)c1ccc(Cl)s1	-7.6%	-10.0%
O=C(c1ccc(F)cc1)N1CCN2C(=O)c3ccccc3C12c1ccc(Cl)cc1 (configuration not stated)	i	-14.2%
Oc1ccc(/C=N/Nc2ccnc3cc(Cl)ccc23)c(O)c1O	-3.6%	4.1%
CCOC(=O)c1ccc(N2C(=O)CC(N3CC=C(c4ccc(F)cc4)CC3)C2=O)cc1 (configuration not stated)	-12.3%	6.0%
COc1ccccc1N1CCN(S(=O)(=O)/C=C/c2ccccc2)CC1	-18.4%	-11.5%
CCc1cccc(C)c1NS(=O)(=O)c1cc(Br)cnc1N	-8.5%	?
CCCCC(=O)Oc1c(S(=O)(=O)c2ccccc2)c(C)nn1C(C)(C)C	?	?
Cc1cc(C)n(Cc2ccccc2F)c(=O)c1C#N	i	-1.9%
Cc1ccc(Cl)cc1N1CCN(Cc2cc(=O)n3ccsc3n2)CC1	i	-9.0%
Cc1nc(C)n(C(C)CNC(=O)c2ccccc2)n1 (configuration not stated)	-18.8%	-3.6%
COc1cccc2cc(C(=O)NC3CC4CCC3C4)oc12 (configuration not stated)	-8.1%	-15.3%
c1ccc(-c2cc3nc(NCc4cccs4)ccn3n2)cc1	i	-10.0%
Cc1cccc(NC(=O)CSc2nc3[nH]ncc3c(=O)[nH]2)c1	-14.5%	-4.2%
CCOC(=O)/C=C1\SCC(=O)N1CC(=O)NC(C)c1ccc(F)cc1 (configuration not stated)	i	-0.9%
Cc1c(NS(=O)(=O)c2ccc(N3CCCCC3)c([N+](=O)[O-])c2)c(=O)n(-c2ccccc2)n1C	i	-1.2%
O=c1[nH][nH]c(=S)n1C1CCCCC1	i	6.4%
CC1CN(C(=O)c2cccc(Oc3ccccc3)c2)CC(C)O1 (configuration not stated)	-14.5%	7.0%
CC1(C(=O)NS(=O)(=O)c2cccc(C#N)c2)CCN1C(=O)C/C=C/c1ccccc1 (configuration not stated)	72.3%[activator]	16.6%
COc1ccc(N2CCN(C(CNC(=O)CC(C)C)c3ccc4c(c3)OCO4)CC2)cc1 (configuration not stated)	1.9%	1.9%
COC(=O)C1=C(c2ccccc2)C[C@@H]2CC[C@H]1N2C(=O)NCCCOC(C)C	-16.8%	-17.1%
CN(CCCn1ccc(N)nc1=O)Cc1ccco1	i	-3.3%
CC(/C=C1\SC(=O)N(CCCC(=O)O)C1=O)=C\c1ccccc1	-12.4%	2.7%
Other entries:
SMILES	Vaccinia mCherry	Vaccinia Venus
O=C(CCC(=O)N1CCOc2ccccc21)NCc1ccccn1	7.5%	4.1%
CCn1c(SCC(=O)N2CC(C)OC(C)C2)nc2c([nH]c3ccccc32)c1=O (configuration not stated)	-12.4%	-15.4%
Cc1ccc(S(=O)(=O)c2cc3c(=O)n4ccccc4nc3n(CCc3ccccc3)c2=N)cc1	-2.4%	-11.4%
CC(C)(Oc1ccc(Cl)cc1)C(=O)NC1=NN(c2ccccc2)C(=O)C1	i	-22.0%
COc1ccc(NC(=O)C(C)Sc2nnc(C3CC3)n2C2CC2)cc1 (configuration not stated)	i	-4.6%
Cc1cccn2c(=O)nc(SCC(=O)c3ccccc3)nc12	-9.4%	-2.3%
CCC(C)N1C(=O)S/C(=C/c2ccc(Sc3nc4ccccc4[nH]3)o2)C1=O (configuration not stated)	12.6µM*	11.2µM*
COc1ccc(N(C)S(=O)(=O)c2cccc(C(=O)Nc3nnc(C4CC4)s3)c2)cc1	-4.6%	1.7%
Cc1ccc(Cl)cc1N1CCN(S(=O)(=O)c2ccc(-c3ccc(=O)[nH]n3)o2)CC1	-19.3%	-1.6%
CC(=O)N1CCN(CCN=Cc2c(O)n(-c3ccc(F)cc3)c(=S)[nH]c2=O)CC1	i	-7.2%
Cc1nc2ccccc2n1CC(=O)NCc1ccccc1	?	-26.0%
O=C1CCC[C@@H]2Cc3nc4ccccc4cc3[C@@H]3CCN1[C@H]23	-7.1%&-2.1%	-6.7%&-16.2%
COc1cccc(CC(NC(C)=O)C(=O)NC2CCN(C(=O)NCc3ccccc3)CC2)c1 (configuration not stated)	-3.2%	-2.9%
O=C(COC(=O)C1=COCCO1)NCCCc1ccccc1	?	-16.9%
CCN1CCSc2ccc(C(=O)NCc3cccc(F)c3)cc21	-21.3%	-4.5%&-10.9%
Cc1cc(C(=O)CSc2nnc(-c3ccccc3)o2)c(C)n1CC1COc2ccccc2O1 (configuration not stated)	-3.7%[1.46 µM]	-20.7%
COc1ccc(NC(=O)Cc2cccc(F)c2)cc1S(=O)(=O)Nc1ccccc1Cl	-20.1%	-9.3%
Cc1ccc(C(=O)C[n+]2ccccc2C)cc1[N+](=O)[O-]	-27.6%	-15.0%
O=C(NCCc1ccc(Cl)cc1)c1cc(=O)[nH]c2ccccc12	i	-4.2%
CCc1cccc(NC(=O)NC2CCCCC2)c1	-26.3%	-26.2%

In another format: results already given
> CCc1cccc(NC(=O)NC2CCCCC2)c1
  Vaccinia mCherry: -26.3%
  Vaccinia Venus: -26.2%
> O=C(NCCc1ccc(Cl)cc1)c1cc(=O)[nH]c2ccccc12
  Vaccinia mCherry: i
  Vaccinia Venus: -4.2%

New compounds follow:
SMILES	Vaccinia mCherry	Vaccinia Venus
COc1ccc(C(=O)OCC(=O)Nc2ccc(Cl)c(C(F)(F)F)c2)c(OC)c1OC	i	-9.9%
Cc1ccc(C(=O)COC(=O)CCCC(=O)Nc2cc(C(F)(F)F)ccc2Cl)cc1C	-13.8%	-15.8%&-10.3%
CC(=O)NNS(=O)(=O)c1ccccc1[N+](=O)[O-]	-7.1%	0.9%
Cc1c(C(=O)/C=C/N(C)C)nnn1-c1ccc(Cl)cc1Cl	7.8%	-0.8%
Cc1ccc(C)c(N(C)C(=O)CCNC(=O)Cn2cnc3ccccc3c2=O)c1	-10.6%	-6.8%
COc1ccc(NS(=O)(=O)c2cc(NC(=O)C3CCCCC3)ccc2N2CCOCC2)cc1	-7.0%	-7.1%
Cc1ccc(CCN2CC(C(=O)NCCN3CCCCCC3)CC2=O)cc1 (configuration not stated)	.	-12.5%
CC(C)c1csc(CN2CCN(Cc3ccc(F)c(F)c3)C(CCO)C2)n1 (configuration not stated)	-11.0%	-1.6%
COc1ccc(CCNC(=O)c2[nH]c(C)c(C(C)=O)c2C)cc1	.	-26.0%
O=C1N=c2ccccc2=C1c1sc(=S)n(-c2ccc(O)cc2)c1O	-34.9%	-14.4%
COC(=O)c1ccc(CN2CCC(CO)(Cc3ccccc3Cl)CC2)cc1	?	-13.2%
COc1cccc(C(=O)Nc2ccccc2-c2nc(-c3ccc(C)cc3)no2)c1	-21.2%	-10.9%
COc1ccc(OC)c(NC(=O)CSc2nc3ccccc3nc2N2CCCCC2)c1	-9.0%	-0.9%
CC(C)(CO)CNC(=O)c1ccc2nc(Cc3cccc(Cl)c3)oc2c1	i	-11.3%
Clc1ccc2c(NCCNC3CCCCC3)ccnc2c1	-12.8%	?
CNS(=O)(=O)c1cnccc1N1CCN(c2cccc(C)c2)CC1	7.0%	0.0%
Cc1ccc(N2CCN(c3ncnc4onc(-c5ccc(F)cc5)c34)CC2)c(C)c1	2.3%	3.4%
CN1CCN(Cc2nc3ccccc3c(=O)n2Cc2nc(-c3cccc([N+](=O)[O-])c3)cs2)CC1	-23.5%	-13.0%
CCCCCCCCN1C(=O)[C@H](CC(=O)N2CCOCC2)C[C@@]2(C(=O)OC)CC(C)(C)CC=C12	-12.5%	-25.3%
CCc1ccc(NC(=O)NC2CCCCCCC2)cc1	-14.3%	-2.9%

Shown with two lines to a compound: entries from further up
Sequence of screens – Vaccinia mCherry, Vaccinia Venus
> COc1ccc(OC)c(NC(=O)CSc2nc3ccccc3nc2N2CCCCC2)c1
  -9.0%, -0.9%
> CC(C)(CO)CNC(=O)c1ccc2nc(Cc3cccc(Cl)c3)oc2c1
  i, -11.3%
> Clc1ccc2c(NCCNC3CCCCC3)ccnc2c1
  -12.8%, ?
> CNS(=O)(=O)c1cnccc1N1CCN(c2cccc(C)c2)CC1
  7.0%, 0.0%
> Cc1ccc(N2CCN(c3ncnc4onc(-c5ccc(F)cc5)c34)CC2)c(C)c1
  2.3%, 3.4%
> CN1CCN(Cc2nc3ccccc3c(=O)n2Cc2nc(-c3cccc([N+](=O)[O-])c3)cs2)CC1
  -23.5%, -13.0%

(list continues)
SMILES	Vaccinia mCherry	Vaccinia Venus
CC1CCCCN1C(=O)c1ccc(C(=O)Nc2ccc(F)cc2)cc1 (configuration not stated)	0.0%	-22.8%
CCOC(=O)CCCNC(=O)CCNC(=O)c1ccc(OC)cc1	-6.3%	-1.1%
O=C(NCc1ccccc1)NCc1cccs1	-14.0%	-4.3%
O=C(COC(=O)CSc1ccc([N+](=O)[O-])cc1)NCCC1=CCCCC1	-13.3%	-10.2%
COc1ccc(C2c3[nH]c4ccccc4c3C[C@H]3C(=O)N(c4ccccc4C(=O)N4CCC(C(=O)O)CC4)C(=O)N23)cc1 (some centres not stated)	-0.4%	-3.5%
Cc1ccc(C(=O)N(CC(C)C)c2c(N)n(Cc3ccccc3)c(=O)[nH]c2=O)o1	i	-7.9%
COc1cccc(NC(=O)CCN2CCN(c3ccccc3F)CC2)c1	-24.4%	-17.1%
CCOC(=O)c1c(NC(=O)C2CCN(S(=O)(=O)c3ccc(Cl)cc3)CC2)sc2c1CCCC2	i	-3.3%
C/C(=N\NC(N)=O)c1ccc(Cl)s1	i	-4.0%
O=C(C1CCCCC1)N1CCN(S(=O)(=O)c2ccc(Br)cc2)CC1	.	-24.3%
CC1CCN(C(=O)COC(=O)Cn2cnc3ccccc32)CC1	-3.0%	-0.6%
COCCN1C(=O)COc2ccccc2C1C(=O)NC(C)(C)C (configuration not stated)	12.2%	5.8%
CCn1cc(CN2CCC(C(=O)Nc3ccc(Oc4ccccc4)nc3)CC2)cn1	-9.6%	-23.6%
O=c1c(F)cn(C2CCCO2)c(=O)n1Cc1ccccc1F (configuration not stated)	-14.9%	-15.9%
COc1cccc(NC(=O)C(=O)NCCc2csc3nc(-c4ccccc4C)nn23)c1	0.1%	6.0%
Cc1[nH][nH]c(=O)c1C(c1ccc(-c2ccc(F)cc2)o1)c1c(C)[nH][nH]c1=O	-6.9%	-2.2%
CCOc1ccc(-n2c(=O)c3c4c(sc3n(Cc3cc(=O)n5cc(Cl)ccc5n3)c2=O)CCC4)cc1	-9.1%	-6.8%
COc1ccc(-c2nc(C#N)c(NCc3ccccc3Cl)o2)cc1OC	-23.0%	?
Fc1ccc(NC(=S)N2CCn3cccc3C2c2cccnc2)cc1 (configuration not stated)	i	-12.5%
